Sa helicase inh = S. aureus DNA helicase inhibition. purified S. aureus helicase, fluorescence unwinding assay; about half of the hits fall short of the stated cut. inhibition, %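 (tested at about 80 µM)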. hit rate 0.05% among 120,000. AID 485395;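 active = both duplicates at 50% or more, or one of them with a favoured structure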;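 note: 0% = mean of negative control wells and 100% = mean of positive control wells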
MgrA DNA FP = alters Staphylococcus aureus MgrA binding to DNA; fluorescence polarization; hit rate 0.13% among 84,000; inhibition, %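 (about 10 µg/mL by stock and volumes)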; AID 602314;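 active = above 50% in either of two replicates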;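 note: 0% = protein plus DNA without compound and 100% = DNA alone without protein; higher means less MgrA bound to DNA so lower polarization; one replicate is shown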
* = called active by the depositor; & = joins results of further samples.

How did COc1cccc(N=Cc2c(O)n(Cc3ccco3)c(=O)[nH]c2=O)c1 do in these assays?
Sa helicase inh: 11.0; MgrA DNA FP: 4.3

What do the screens show for `NCCCN1CCN(c2ccccc2)CC1`?
Sa helicase inh: 12.0; MgrA DNA FP: 0.2

Results for CCOc1ccc(C(=O)OC2CC3CCC(C2)N3C)cc1 (configuration not stated) ?
Sa helicase inh: -4.0; MgrA DNA FP: 0.6

Results for CN(C)C(=O)Oc1ccc2c(-c3ccccc3)cc(=O)oc2c1 ?
MgrA DNA FP: -2.9

What do the screens show for `CC(=O)Oc1ccc(Cl)c2cccnc12`?
MgrA DNA FP: 7.3

How did CC12CN3CCN(CC(C3)/C1=N\O)C2 do in these assays?
Sa helicase inh: -4.0; MgrA DNA FP: 1.8

Results for CC(O)CN1CCCCC1c1cccnc1 (configuration not stated) ?
Sa helicase inh: -70.0; MgrA DNA FP: 44.2

What do the screens show for `CC(C)(C)n1ncc(Cl)c(Cl)c1=O`?
Sa helicase inh: 0.0

How did O=C1NC(=O)C(=Cc2ccc([N+](=O)[O-])s2)C(=O)N1 do in these assays?
MgrA DNA FP: 11.1

What do the screens show for `CC1=C(C(=O)OC(C)(C)C)C2(C(=O)Nc3ccc(Br)cc32)C(C#N)=C(N)O1` (configuration not stated)?
MgrA DNA FP: 2.9

Results for CCCCn1c(C)c(C(=O)OCC)c2cc(OC(=O)c3ccccc3F)c3ccccc3c21 ?
MgrA DNA FP: 0.6

How did CCOC(=O)C1CCN(/C=C2/C(=O)NC(=O)N(Cc3ccco3)C2=O)CC1 do in these assays?
Sa helicase inh: 12.0; MgrA DNA FP: 29.2*

How did O=C1NC(=O)N(c2ccccc2)C(=O)/C1=C/c1ccccc1 do in these assays?
Sa helicase inh: 3.0; MgrA DNA FP: 12.7

Results for CN(C)C(=S)SSC(=S)N(C)C ?
MgrA DNA FP: 10.1

What do the screens show for `Cc1ccc(S(=O)(=O)NC(=O)N2CC3CC(C2)c2cccc(=O)n2C3)cc1` (configuration not stated)?
Sa helicase inh: 7.0

Results for Cn1cc(C(=O)OCC(=O)Nc2ccc(Cl)cn2)c2ccccc21 ?
Sa helicase inh: 9.0

How did COC(CSc1nc2cccc(F)c2c(=O)n1-c1ccc(C)c(C)c1)OC do in these assays?
MgrA DNA FP: -1.6

How did CN[C@@H]1[C@@H](O)[C@@H](O[C@@H]2[C@@H](O)[C@H](O[C@H]3O[C@H]([C@@H](C)NC)CC[C@H]3N)[C@@H](N)C[C@H]2N)OC[C@]1(C)O (tested in a mixture with another compound) do in these assays?
MgrA DNA FP: -0.6

What do the screens show for `CCOc1cc2c(cc1OCC)-n1cccc1C(c1cccc(F)c1F)NC2` (configuration not stated)?
Sa helicase inh: 4.0; MgrA DNA FP: -1.4

How did CC(=O)N1CC(=O)Nc2ccc(F)cc2C1c1ccc(F)cc1 (configuration not stated) do in these assays?
Sa helicase inh: -9.0

4 entries picked at random from those above:
How did COc1cccc(N=Cc2c(O)n(Cc3ccco3)c(=O)[nH]c2=O)c1 do in these assays?
Sa helicase inh: 11.0; MgrA DNA FP: 4.3

Results for CN(C)C(=O)Oc1ccc2c(-c3ccccc3)cc(=O)oc2c1 ?
MgrA DNA FP: -2.9

How did COC(CSc1nc2cccc(F)c2c(=O)n1-c1ccc(C)c(C)c1)OC do in these assays?
MgrA DNA FP: -1.6

Results for CN(C)C(=S)SSC(=S)N(C)C ?
MgrA DNA FP: 10.1

(listing goes on)
What do the screens show for `COc1ccc(-c2cn3c(n2)sc2cc(C(=O)N4CCC5(CC4)OCCO5)ccc23)cc1`?
Sa helicase inh: 29.0

How did CC(=O)[C@H]1CC[C@H]2[C@@H]3CC[C@H]4C[C@H](O)CC[C@]4(C)[C@H]3C(=O)C[C@]12C do in these assays?
MgrA DNA FP: 0.0

What do the screens show for `CCCC(=O)c1c(O)[nH]c(=O)[nH]c1=O`?
Sa helicase inh: 1.0; MgrA DNA FP: -0.5

What do the screens show for `CCc1ccc(-n2c(N3CCCC3)nc3ccccc3c2=O)cc1`?
Sa helicase inh: 8.0

What do the screens show for `Cc1nn(C)c(C)c1P(=S)(c1c(C)nn(C)c1C)N(C)C`?
Sa helicase inh: -2.0

How did CN(N)P(=O)(c1ccccc1)c1ccccc1 do in these assays?
Sa helicase inh: 10.0; MgrA DNA FP: 2.8

How did CCN1C[C@]2(COC)CC[C@H](OC)C34C5CC6[C@H](O)C5[C@](O)(C[C@@H]6OC)C(CC32)C14 (some centres not stated) do in these assays?
Sa helicase inh: 17.0

Results for CCN(CC)C(=O)COc1ccc(C2C(C#N)=C(N)Oc3c2c(=O)oc2ccccc32)cc1OC (configuration not stated) ?
MgrA DNA FP: -0.9

What do the screens show for `c1ccc(C2CNCCO2)cc1` (configuration not stated)?
Sa helicase inh: 8.0

How did CCCCC1(C)N2CC3(C)CN1CC(C)(C2)C3=O (configuration not stated) do in these assays?
Sa helicase inh: -26.0

What do the screens show for `COC1CCCCC1NC1CCCC1` (configuration not stated)?
Sa helicase inh: 15.0; MgrA DNA FP: -2.2

What do the screens show for `O=C(CBr)c1cc(Cl)ccc1Cl`?
Sa helicase inh: -17.0; MgrA DNA FP: -2.1

How did CCCCn1c(C)c(C(=O)OCC)c2cc(OC(=O)C(C)(C)C)c3ccccc3c21 do in these assays?
MgrA DNA FP: 1.2

What do the screens show for `O=C(c1ccccc1)c1cc(Br)ccc1NC(=O)c1sc2ccccc2c1Cl`?
MgrA DNA FP: -1.6

What do the screens show for `CC1(C)C(C(=O)N2CCN(c3ccc(Cl)cc3)CC2)C1(C)C`?
Sa helicase inh: 4.0; MgrA DNA FP: 1.7

How did OCCP(c1ccccc1)c1ccccc1 do in these assays?
Sa helicase inh: 3.0; MgrA DNA FP: 1.9

How did CCOC(=O)CC1=C(C(=O)OCC)C2(C(=O)N(CC(N)=O)c3ccccc32)C(C(=O)OCC)=C(N)O1 (configuration not stated) do in these assays?
Sa helicase inh: 21.0

Results for CC1CN(Cc2c(-c3ccccc3)nc3ccc(Cl)cn23)CC(C)O1 (configuration not stated) ?
MgrA DNA FP: 0.3

What do the screens show for `CCCS(=O)(=O)N1CCC(C(=O)N2CCC3(CC2)OCCO3)CC1`?
Sa helicase inh: -6.0; MgrA DNA FP: 1.0

How did O=C(O)c1nonc1-c1nonc1C(=O)O do in these assays?
MgrA DNA FP: -0.2

How did C1CCN2CC3C(CC2C1)CN1CCCCC31 (configuration not stated) do in these assays?
Sa helicase inh: 1.0

Results for CN(C)P(=O)(OCC(F)(F)F)N(C)C ?
Sa helicase inh: 12.0; MgrA DNA FP: -3.7

What do the screens show for `CCN(CC)C(=O)N[C@H]1C=C2c3cccc4[nH]cc(c34)C[C@H]2N(C)C1`?
MgrA DNA FP: 7.6

What do the screens show for `O=C1NC(=O)C(=Cc2cccc(OCCOc3ccc([N+](=O)[O-])cc3)c2)C(=O)N1`?
MgrA DNA FP: 6.3

How did NCCc1ccco1 do in these assays?
Sa helicase inh: 5.0

Results for Cc1nc2ccccc2c(=O)n1-c1ccc(OC(F)F)cc1 ?
Sa helicase inh: -13.0

What do the screens show for `Cc1ccccc1NC1=NCCS1`?
Sa helicase inh: 25.0; MgrA DNA FP: 0.9

How did CN(C)CCSc1nc2ccccc2c(=O)n1-c1ccccc1 do in these assays?
Sa helicase inh: 3.0; MgrA DNA FP: -0.2

What do the screens show for `O=C(CCCN1CCC(n2c(=O)[nH]c3ccccc32)CC1)c1ccc(F)cc1`?
MgrA DNA FP: 8.9

Results for CC1C(c2ccccc2)=NOC(C)(C(=O)c2ccccc2)N1O (configuration not stated) ?
Sa helicase inh: 5.0

How did CSc1ccc(C=C(C#N)C#N)s1 do in these assays?
Sa helicase inh: 2.0

How did C=CCN1C(=O)NC(=O)/C(=C/C=C/c2ccccc2)C1=O do in these assays?
Sa helicase inh: 3.0; MgrA DNA FP: 19.3

What do the screens show for `CCOC(=O)C1C2NC(=S)NC1(C)Oc1ccccc12` (configuration not stated)?
Sa helicase inh: 5.0; MgrA DNA FP: -2.1

What do the screens show for `CCOc1cc(N(CC)CC)ccc1C=C1C(=O)NC(=S)NC1=O`?
Sa helicase inh: -119.0

What do the screens show for `NCCc1ccc(O)cc1`?
MgrA DNA FP: 3.4

Results for Cc1oc2ccccc2c1-c1ccc2ccccc2n1 ?
Sa helicase inh: -16.0; MgrA DNA FP: -1.0

How did c1ccc2c(c1)OCC(C1=NCCN1)O2 (configuration not stated) do in these assays?
MgrA DNA FP: -1.4

What do the screens show for `Cn1c(=O)c(C2(O)C(=O)NC(=O)NC2=O)c(O)c2ccccc21`?
Sa helicase inh: 12.0; MgrA DNA FP: -4.9

How did N#Cc1nn(-c2c(Cl)cc(C(F)(F)F)cc2Cl)c(N)c1S(=O)C(F)(F)F (configuration not stated) do in these assays?
MgrA DNA FP: 2.9&3.8

How did Oc1ccc(CC2CC3CCN2CC3)cc1 (configuration not stated) do in these assays?
Sa helicase inh: 7.0; MgrA DNA FP: -2.2

An excerpt from the list above, as a working copy:
How did C1CCN2CC3C(CC2C1)CN1CCCCC31 (configuration not stated) do in these assays?
Sa helicase inh: 1.0

Results for CN(C)P(=O)(OCC(F)(F)F)N(C)C ?
Sa helicase inh: 12.0; MgrA DNA FP: -3.7

(continued)
What do the screens show for `CCCCn1c(C)c(C(=O)OCC)c2cc(OC(=O)Cc3ccccc3)c3ccccc3c21`?
MgrA DNA FP: 2.0

What do the screens show for `O=C1c2ccccc2C2(c3ccc(Cl)cc3)NCCN12` (configuration not stated)?
Sa helicase inh: -11.0

How did Cc1ccc(C2C(C=C3C(=O)NC(=O)NC3=O)=C(c3cccs3)Oc3ccccc32)cc1 (configuration not stated) do in these assays?
Sa helicase inh: 19.0; MgrA DNA FP: 40.3

Results for CC12NCCC1(C)c1ccccc1N2 (configuration not stated) ?
Sa helicase inh: 3.0

What do the screens show for `Cc1ccc2c(c1)C1CN(C)CCC1N2S(=O)(=O)c1ccccc1` (configuration not stated)?
Sa helicase inh: 12.0; MgrA DNA FP: 1.8

How did CC(C)C(=O)N1N=C(c2cccnc2)CC1(O)C(F)(F)F (configuration not stated) do in these assays?
Sa helicase inh: 14.0; MgrA DNA FP: -2.6

How did CC[C@]12C=CCN3CCC4(c5cc(Br)c(OC)cc5N(C)C4[C@@](O)(C(=O)OC)[C@@H]1OC(C)=O)C32 (some centres not stated) do in these assays?
Sa helicase inh: 0.0

What do the screens show for `N[C@@H]1C[C@H]1c1ccccc1`?
MgrA DNA FP: 5.8

What do the screens show for `O=C(O)c1ccc2c(c1)N=C(Cl)c1ccccc1S2`?
Sa helicase inh: 8.0

How did CCOC(=O)C1CN(C)CCC1=O (configuration not stated) do in these assays?
Sa helicase inh: -13.0

How did C=C(C)CC1NC2CC(C)(C)C1c1ccccc12 (configuration not stated) do in these assays?
Sa helicase inh: 9.0; MgrA DNA FP: -1.7

How did CCCC(=O)c1c(O)c2ccccc2oc1=O do in these assays?
Sa helicase inh: 2.0; MgrA DNA FP: 0.8

How did O=c1c2ccccc2nc(Sc2ncccn2)n1-c1ccc(OC(F)F)cc1 do in these assays?
Sa helicase inh: -1.0

Results for Cc1ccc(N=C(N(C)C)P(=O)(N(C)C)N(C)C)cc1 ?
Sa helicase inh: -1.0

What do the screens show for `COc1ccc(CC2CC3CCN2CC3)cc1` (configuration not stated)?
Sa helicase inh: 0.0; MgrA DNA FP: -1.4

How did COc1ccccc1CC(C)N (configuration not stated) do in these assays?
Sa helicase inh: 3.0; MgrA DNA FP: 8.3

Results for CCOC(=O)C1=NN(c2ccc(C)cc2)C2c3cccc4cccc(c34)C12 (configuration not stated) ?
MgrA DNA FP: 0.2

Results for O=[P+](O)c1ccc(Cl)cc1 ?
Sa helicase inh: -4.0

Results for N=c1c[n+](C2CCCCC2)[n-]o1 ?
Sa helicase inh: 14.0; MgrA DNA FP: 0.4

What do the screens show for `CC1=C(C(=O)OC(C)(C)C)C2(C(=O)Nc3ccc(Br)cc32)C(C(=O)OC(C)(C)C)=C(N)O1` (configuration not stated)?
MgrA DNA FP: 2.8

3 entries from above, ordered by length of the SMILES, rising:
Results for CC12NCCC1(C)c1ccccc1N2 (configuration not stated) ?
Sa helicase inh: 3.0

What do the screens show for `N[C@@H]1C[C@H]1c1ccccc1`?
MgrA DNA FP: 5.8

Results for N=c1c[n+](C2CCCCC2)[n-]o1 ?
Sa helicase inh: 14.0; MgrA DNA FP: 0.4

Continued:
How did CCC(=O)N1CC(=O)Nc2ccc(Br)cc2C1c1ccccc1 (configuration not stated) do in these assays?
Sa helicase inh: 9.0

How did CCCCNC(=O)c1cc2cccnc2n(Cc2ccccc2)c1=O do in these assays?
Sa helicase inh: 7.0

What do the screens show for `CSc1nc2ccccc2c(=O)n1-c1ccc(F)cc1F`?
Sa helicase inh: -5.0; MgrA DNA FP: 1.6

What do the screens show for `CCCCc1ccc(C(=O)O)nc1`?
MgrA DNA FP: 2.6

What do the screens show for `CCOC(=O)c1c(CN2CCN(C)CC2)n(Cc2ccccc2)c2cc(Br)c(O)cc12`?
MgrA DNA FP: 2.2

How did COc1ccc(C=C2C(=O)NC(=O)NC2=O)cc1 do in these assays?
Sa helicase inh: 1.0; MgrA DNA FP: 11.6

Results for CN1CC=C(/C=C/c2ccc(-c3ccccc3)cc2)CC1 ?
Sa helicase inh: 16.0; MgrA DNA FP: -1.9

How did Oc1cccc(CN2CCN(Cc3ccccc3)CC2)c1 do in these assays?
Sa helicase inh: 0.0; MgrA DNA FP: -3.2

How did CCN(CC)C1CCCCC1 do in these assays?
Sa helicase inh: -4.0; MgrA DNA FP: 1.4

How did C=CCN1CC[C@]23c4c5ccc(O)c4OC2C(=O)CC[C@@]3(O)[C@H]1C5 (some centres not stated) do in these assays?
MgrA DNA FP: 4.0

Results for O=C(c1ccncc1)C12CN3CN(CN(C3)C1)C2 ?
MgrA DNA FP: -0.7

How did CC(NCc1ccccn1)C(O)c1ccccc1 (configuration not stated) do in these assays?
Sa helicase inh: 0.0; MgrA DNA FP: -8.4

High-throughput results deposited in PubChem by ICCB-Longwood Screening Facility, Harvard Medical School.

Some of the compounds tested (hit frequency here may not be typical).
